Source: PubChem (several laboratories)
PrP UTR inh: inhibition of PrP 5' UTR reporter expression; cell-based PrP 5' UTR mRNA reporter, plate reader; inhibition, % (test concentration not listed); hit rate 0.35% among 340,000; AID 488862;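 active means every replicate at 50% or more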;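 further: 0 = median of the neutral control wells; tested in H4 reporter cells; numbers are from one replicate; inactives centre near -14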
RN4220 kill: kills Staphylococcus aureus RN4220; hit rate 0.33% among 330,000; inhibition, % (test concentration not listed); S. aureus RN4220 growth, OD600, 16 h;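 active means z-score of -3 or lower and OD600 up to 0.18 on both plates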;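 further: plate controls were untreated cells for no effect and reference antibiotic for full effect; stock transfer was 100 nL into about 80 µL; one replicate is shown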
ugtP null kill: growth inhibition of S. aureus ugtP deletion strain; S. aureus RN4220 ugtP deletion, OD600 growth, 16 h; some inactives read as strong as hits; growth inhibition, % (no concentration beside the values); hit rate 0.54% among 330,000;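 active means z-score under -3 and OD600 up to 0.15 on both plates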;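 further: plate controls were untreated wells for no effect and antibiotic for full effect; wells of about 80 µL received 100 nL stock; the first replicate is given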
Mtb hypoxia inh: reduces hypoxia-regulated biosensor signal in M. tuberculosis | AID 1159583 | fluorescence inhibition, % (test concentration not listed) | M. tuberculosis hypoxia-regulated fluorescent reporter, fluorescence | hit rate 0.1% among 300,000;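 active means 35 to 45% if threefold the growth effect, above 45% if 1.5-fold the growth effect; inactive means the rest, general growth blockers included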;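 further: wells of about 50 µL received 100 nL stock; 0% = vehicle wells and 100% = reference inhibitor wells; whole bacteria with a GFP reporter of the hypoxia response; strong numbers were not always called active; many hits fall short of the cut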
BJeLR lethal: kills HRASV12-expressing BJeLR cells; BJeLR (HRASV12) viability, CellTiter-Glo ATP luminescence, 48 h; reference of the scale not given here; inhibition, % (no concentration beside the values); hit rate 0.17% among 300,000; AID 1554;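 active means replicate mean above 50%; inconclusive means above 50% but judged a plate artefact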;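 further: 50 nL library stock added to about 25 µL; numbers are from one replicate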
Autofluor counter: flagged as autofluorescent in microsphere protease counterscreen; fluorescence intensity (test concentration not listed); AID 624483; compound autofluorescence counterscreen, microsphere flow cytometry; stronger effect = higher value; hit rate 3.1% among 360,000;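 active means at least 3 SD above the mean of all compounds, about 16000 in these data; inconclusive means too few beads counted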;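 further: 100 nL of 1 mM stock went into each well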
Mtb hypoxia inh growth: second read-out of Mtb hypoxia inh, no call of its own (marks repeat the call); growth inhibition, %; measured here: M. tuberculosis growth (absorbance);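 0% = vehicle and 100% = reference antibiotic; read after six days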
* = called active by the depositor; u = inconclusive; x = not tested or not shown.

SMILES | PrP UTR inh | RN4220 kill | ugtP null kill | Mtb hypoxia inh | Mtb hypoxia inh growth | BJeLR lethal | Autofluor counter
O=S(=O)(NC1C2CC3CC(C2)CC1C3)c1ccc(F)cc1 (configuration not stated) | -15 | -0.5 | 1 | 1 | 1 | x | u
O=C1NN(c2ccccc2)C(=O)/C1=C\c1cccc(OC(=O)c2cccs2)c1 | -32 | -3.7 | 6 | x | x | -5 | 2247
CCOc1cc(/C=C2\SC(=S)N(C(C(=O)O)c3ccccc3)C2=O)ccc1O (configuration not stated) | -4 | 5.8 | 12 | 6 | -6 | 13 | 5387
COc1cccc(N=CNc2cccc(OC)c2)c1 | -29 | 4.1 | 2 | 7 | 2 | x | 3474
S=C(NCCc1ccccc1)NCC1CCCO1 (configuration not stated) | -34 | 4.8 | 6 | -6 | 5 | -2 | 2180
CCN(CC)CCN(C(=O)c1ccc(Br)s1)c1nc2cc3c(cc2s1)OCO3 | -23 | -0.1 | 8 | 13 | 12 | 5 | x
CCOc1ccc(OCCC(=O)N2CCN(S(=O)(=O)c3ccc(OCC)cc3)CC2)cc1 | -15 | 1.7 | 9 | 11 | 8 | -7 | 4745
Cc1ccc(C23CC4CC(CC(CC(=O)NC(C)(C)CO)(C4)C2)C3)cc1 | -12 | 2.4 | -10 | -5 | 10 | 6 | 3897
CCc1ccc(NS(=O)(=O)c2cc3c4c(c2)CCN4C(=O)CC3)cc1 | -38 | 11 | 12 | 11 | 1 | -5 | 5653
CC1CCCCN1C(=O)Cn1c(=O)n(C2CCCCC2)c(=O)c2ccccc21 (configuration not stated) | -7 | -2.1 | 8 | x | x | 18 | 4575
O=C(Cc1ccc2c(c1)OCCO2)c1c(O)cc(O)cc1O | -41 | 1.5 | -5 | 6 | 2 | 1 | 10418
CC1(C)CC(=O)C(C=NCCN2CCN(CCCCS(=O)(=O)O)CC2)=C(O)C1 | -26 | 2.8 | -2 | 7 | 8 | 1 | 8739
COc1cc(CCC(=O)OCC(=O)Nc2ccccc2OC(F)F)cc(OC)c1OC | -23 | 3.3 | 6 | 5 | 6 | 2 | 4731
C#CCOCCOCCOCCNc1nc(N2CCN(C(=O)C(CCC(=O)O)n3cc(C(N)CO)nn3)CC2)nc(N2CCN(C(=O)C(CCC(=O)O)n3cc(C(N)CC(C)C)nn3)CC2)n1 (configuration not stated) | x | 6.3 | 3 | 1 | 0 | x | x
COC(=O)c1ccc(COc2ccc(/C=N/O)cc2)o1 | -3 | x | x | x | x | -3 | 4277
COc1cc(O)c(C(CCN2CCCC(C)C2)c2cc(OC)c(OC)c(OC)c2)c(OC)c1 (configuration not stated) | -5 | 4.8 | -2 | 6 | 5 | 1 | 3902
CC[C@@H]1CC=C[C@H]2[C@H]1C(=O)N(Cc1ccccc1)[C@H]2c1ccc(OC)c(Cl)c1 | -3 | x | x | x | x | 7 | 4053
O=S(=O)(c1ccc2ccccc2c1)N(CC1CO1)c1ccccc1 (configuration not stated) | -25 | 8.5 | 4 | 3 | 7 | 4 | 4467
CC(NC(=O)c1cccnc1)c1ccc2c(c1)OCO2 (configuration not stated) | -1 | 0.5 | 6 | 4 | 0 | 7 | 16408*
CCOC(=O)N1CCC(NC(=O)CN2C(=O)CSc3ncccc32)CC1 | -18 | 2.7 | -6 | x | x | -7 | 5561
COc1ccc(NC(=O)Nc2cc(C)ccn2)cc1 | 10 | 4.2 | 3 | 6 | -1 | x | 4965
CCCc1cc(C(N)=O)c(NC(=O)c2ccco2)s1 | -25 | 7.3 | 12 | 7 | 8 | 0 | 16987*
C[C@H]1CN([C@@H](C)CO)C(=O)Cc2cc(NC(=O)Cn3cnnn3)ccc2O[C@H]1CN(C)Cc1ccncc1 | -24 | 3.6 | 10 | 5 | 5 | x | 3764
CCn1cc(CN2CCCC(C(=O)Nc3ccc(-c4nc5ccccc5[nH]4)cc3)C2)c(C)n1 (configuration not stated) | -21 | 0.7 | -1 | -3 | 2 | 6 | 6030
O=C(COc1ccccc1)NCc1ccc2c(c1)OCO2 | -3 | 0.0 | -1 | x | x | 2 | 11864

Nine of these compounds, reformatted.
SMILES	PrP UTR inh	RN4220 kill	ugtP null kill	Mtb hypoxia inh	Mtb hypoxia inh growth	BJeLR lethal	Autofluor counter
CCOc1cc(/C=C2\SC(=S)N(C(C(=O)O)c3ccccc3)C2=O)ccc1O (configuration not stated)	-4	5.8	12	6	-6	13	5387
COc1cccc(N=CNc2cccc(OC)c2)c1	-29	4.1	2	7	2	x	3474
S=C(NCCc1ccccc1)NCC1CCCO1 (configuration not stated)	-34	4.8	6	-6	5	-2	2180
CCN(CC)CCN(C(=O)c1ccc(Br)s1)c1nc2cc3c(cc2s1)OCO3	-23	-0.1	8	13	12	5	x
CCOc1ccc(OCCC(=O)N2CCN(S(=O)(=O)c3ccc(OCC)cc3)CC2)cc1	-15	1.7	9	11	8	-7	4745
Cc1ccc(C23CC4CC(CC(CC(=O)NC(C)(C)CO)(C4)C2)C3)cc1	-12	2.4	-10	-5	10	6	3897
CCc1ccc(NS(=O)(=O)c2cc3c4c(c2)CCN4C(=O)CC3)cc1	-38	11	12	11	1	-5	5653
CC1CCCCN1C(=O)Cn1c(=O)n(C2CCCCC2)c(=O)c2ccccc21 (configuration not stated)	-7	-2.1	8	x	x	18	4575
O=C(Cc1ccc2c(c1)OCCO2)c1c(O)cc(O)cc1O	-41	1.5	-5	6	2	1	10418

More compounds:
SMILES | PrP UTR inh | RN4220 kill | ugtP null kill | Mtb hypoxia inh | Mtb hypoxia inh growth | BJeLR lethal | Autofluor counter
COCCn1c(=NC(C)=O)sc2cc([N+](=O)[O-])ccc21 | -24 | 0.3 | -2 | 0 | 10 | -21 | 2456
Cc1ccc(NC(=O)C2(c3ccccc3)CCCC2)nc1 | -4 | 0.1 | 3 | 14 | -1 | 0 | 2506
Cc1ccc2c(c1)C1CN(C)CCC1N2C(=O)Nc1ccc(Cl)cc1 (configuration not stated) | 3 | -1.6 | -34 | 6 | 15 | 5 | 10646
COc1ccc(S(=O)(=O)Cc2ccc(C(=O)NC3CC3)o2)cc1 | -23 | 4.1 | 3 | x | x | 1 | 5833
O=C(Nc1cccc(F)c1)C1CCN(S(=O)(=O)c2cccc3nonc23)CC1 | -20 | 4.5 | -3 | 7 | 9 | -6 | 3558
Cc1cc(C(F)(F)F)c2c(C)nn(CCc3nn[nH]n3)c2n1 | -11 | 8.3 | -2 | 7 | 3 | -4 | 2869
C=CCn1c(-c2cc(OC)cc(OC)c2)n[nH]c1=S | -25 | -0.9 | 0 | x | x | 12 | 2793
CC(CC(C)C(=O)N1CCOCCN(C(=O)C(C)CC(C)C(=O)O)CCOCC1)C(=O)O (configuration not stated) | -1 | 2.9 | -1 | 5 | 1 | -10 | 3741
O=C(NC1CCCCCC1)c1ccc(S(=O)(=O)NCc2ccco2)cc1 | -18 | -1.8 | -9 | -8 | 1 | 1 | 23471*
CC(C)C(=O)Nc1sc2c(c1C#N)CCCCC2 | -19 | 6.0 | -1 | 6 | 13 | -3 | 4100
CCOc1ccc2oc(=O)cc(C)c2c1 | -17 | 3.7 | 0 | x | x | -3 | 3532
CCC(=O)Nc1cccc(C2=NOC3(C2)CC(C(N)=O)N(C(=O)Cc2ccc([N+](=O)[O-])cc2)C3)c1 (configuration not stated) | x | -1.9 | -16 | 0 | 3 | x | x
COc1cc(OC)c(C(=O)NC23CC4CC(CC(C4)C2)C3)cc1OC | -18 | 2.8 | -10 | 14 | 12 | -2 | 4065
CS(=O)(=O)N(CCC(=O)O)Cc1ccccc1 | -9 | -1.0 | 3 | x | x | -5 | 2791
CCCOc1ccc(Br)cc1/C=N/O | -50 | x | x | x | x | 5 | 2624
Cc1ccc2oc(N=C(N)NC(=O)C(C)(C)C)nc2c1 | x | -0.5 | -6 | 1 | -5 | x | x
CCOC(=O)C(C)OC(=O)C1=C(C)NC(=O)NC1c1ccc2c(c1)OCO2 (configuration not stated) | -14 | 1.6 | 10 | 14 | 18 | 4 | 3449
CCCCCCn1c(=O)c(C(=O)Nc2ncccc2O)c(O)c2ccccc21 | -22 | 9.1 | -2 | 9 | 9 | -20 | 4098
CC(C)(C)c1cc(C(=O)NCc2ccco2)ccn1 | -35 | 1.5 | 5 | 21 | 15 | -24 | 24501*
Cc1ccc(-c2nn(-c3ccccc3)cc2/C=C2\SC(=S)N(CCCCCC(=O)O)C2=O)o1 | -30 | x | x | x | x | -1 | 6104
CCn1c(/C=C2\C(=O)N(C)c3ccccc32)nc2ccccc2c1=O | -18 | 3.9 | -6 | -62 | 20 | 3 | 4051
CC(C)CCC1(C)NC(=O)N(CC(=O)c2ccc[nH]2)C1=O (configuration not stated) | 1 | 1.1 | -2 | 4 | -7 | -3 | 6349
Cc1sc(-n2cccc2)c(C(=O)O)c1C | 10 | 2.3 | -2 | 6 | 23 | -12 | 3090
O=C1CC(N2CCC(O)(c3ccc(Cl)cc3)CC2)C(=O)N1Cc1ccc(N2CCCC2=O)cc1 (configuration not stated) | -7 | 3.6 | 3 | x | x | 4 | 3496
O=C(CCn1nnc2ccccc21)Nc1nnc(-c2ccccc2F)s1 | -22 | -6.1 | -1 | 4 | 7 | -13 | 22751*

(list continues)
SMILES | PrP UTR inh | RN4220 kill | ugtP null kill | Mtb hypoxia inh | Mtb hypoxia inh growth | BJeLR lethal | Autofluor counter
CCCC(=O)NNC(=O)c1ccoc1C | -22 | 1.5 | 9 | -5 | 0 | 6 | 2594
O=C(CC1C(=O)NCCN1Cc1c(F)cccc1Cl)NCCc1ccccn1 (configuration not stated) | -28 | 3.3 | 7 | 6 | -1 | -5 | 2506
CC(C)(C)C(=O)Nc1cc(C(F)(F)F)ccc1-n1ccnc1 | -7 | 3.0 | -1 | 0 | 14 | -4 | 3316
Cc1cc(C)c2c(-n3cccc3)c(C(=O)O)sc2n1 | -25 | 1.6 | 5 | 2 | 4 | x | 11481
Cc1ccccc1C1(CCN2CCCCC2)CCOC(C)(C)C1 (configuration not stated) | -6 | 5.4 | 10 | 0 | 5 | 5 | 2603
CCOc1cc(N2CCOCC2)c(OCC)cc1NC(=O)c1ccco1 | -25 | 3.2 | 2 | -1 | 2 | 0 | 6420
Cc1ccc2c(c1)NC(=O)C(CC(=O)NCCCN1CCCC1)O2 (configuration not stated) | -31 | -0.5 | 10 | x | x | -6 | 6430
COc1ccccc1NC(=O)c1ccc(NC(=O)CN2CCCCC2)cc1 | -9 | -0.6 | -4 | 6 | 8 | x | 3564
COCCCn1c2nc3ccccc3nc2c2c(=O)n(CC3CCCO3)cnc21 (configuration not stated) | -6 | 1.5 | -1 | x | x | 17 | 3418
CCOc1ccc(S(=O)(=O)n2cnc3cc(C)c(C)cc32)cc1 | -13 | 1.6 | -12 | -4 | 3 | 3 | 8236
CCCCN1C(=O)/C(=C/c2ccc(N(C)C)cc2)C(=O)N(Cc2ccco2)C1=O | -21 | -8.3 | -8 | -10 | 2 | -3 | 4821
Cc1cc(C)nc(/N=C(\N)c2c(O)[nH]c(=O)[nH]c2=O)n1 | -2 | 5.8 | -6 | 14 | 7 | -15 | 9561
CCN(CC)c1ccc(NC(=O)C2CCCC2)cc1 | -14 | 3.0 | 4 | 3 | 3 | -4 | 3209
CS(=O)(=O)c1nc(S(=O)(=O)c2ccc(Cl)cc2)c(N2CCCCCC2)s1 | -23 | 1.1 | 9 | 6 | 12 | 8 | 5750
C[C@H](NC(=O)c1ccco1)C(=O)NCCc1ccc(S(N)(=O)=O)cc1 | -10 | -4.6 | -5 | 0 | 2 | 1 | 3926
Cc1oc2nc(SCC(=O)N3CCCCC3)nc(N)c2c1C | -24 | 3.6 | 8 | 5 | 3 | 7 | 2477
CC1CCC(NC(=O)c2cc(S(=O)(=O)N3CCCCC3)ccc2N2CCOCC2)CC1 (configuration not stated) | -3 | 1.8 | 7 | -6 | 2 | x | 3204
COc1ccccc1CNC(=O)CSC1=NCCS1 | -25 | -0.6 | 8 | 8 | 9 | -2 | 2351

Rows were taken by chance; any-hit rate near 4%.
